Beta cell apopt: beta cell apoptosis inhibition; INS-1E cytokine-induced death, ATP luminescence, 48 h; percent of positive-control rescue, neutral wells zero; protection from apoptosis, % (no concentration beside the values); hit rate 0.8% among 300,000; AID 435005;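 active = all replicates at 75% or more, or half of them and the mean; inconclusive = half reach 75% but not the mean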;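 note: 0% = cytokine-treated negative control wells and 100% = positive control rescue; higher means more ATP so stronger rescue from cytokine killing; wells of about 40 µL received 100 nL stock; the first replicate is given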
AF4-AF9 inh: blocks AF4 peptide binding to human AF9; P42568; hit rate 0.47% among 350,000; AlphaScreen, biotin-AF4 peptide binding to FLAG-AF9; inhibition, % at 10 µM;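 active = every replicate reaching a set inhibition limit, whatever the replicate mean, cut at about 25% in these data; inconclusive = mean inhibition reaches that limit but some replicates miss it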;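 note: 0% = plate neutral control median and 100% = total signal loss; the record names both 10 and 1 µM as test concentration; the first replicate is given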
Target sequence (P42568 whole entry, looked up): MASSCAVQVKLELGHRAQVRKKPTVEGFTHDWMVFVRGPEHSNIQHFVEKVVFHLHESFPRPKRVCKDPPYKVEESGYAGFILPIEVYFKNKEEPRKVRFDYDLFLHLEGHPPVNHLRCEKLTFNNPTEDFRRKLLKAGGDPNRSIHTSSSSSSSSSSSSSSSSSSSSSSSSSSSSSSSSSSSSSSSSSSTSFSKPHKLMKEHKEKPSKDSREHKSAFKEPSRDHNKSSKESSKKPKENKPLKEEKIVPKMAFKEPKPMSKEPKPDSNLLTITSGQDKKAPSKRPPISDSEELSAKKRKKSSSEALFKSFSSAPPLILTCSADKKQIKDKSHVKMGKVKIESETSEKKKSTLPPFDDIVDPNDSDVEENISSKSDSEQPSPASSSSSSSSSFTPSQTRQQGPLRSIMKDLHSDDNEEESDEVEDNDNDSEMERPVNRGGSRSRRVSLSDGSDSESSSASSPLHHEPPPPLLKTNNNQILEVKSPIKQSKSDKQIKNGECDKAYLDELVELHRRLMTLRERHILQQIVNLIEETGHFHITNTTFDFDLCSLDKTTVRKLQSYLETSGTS
A1 inh: inhibitors of the anti-apoptotic protein A1, read as caspase activation | MEF A1-2A-BIM cells, Caspase-Glo 3/7 luminescence, 3 h; percent of clofoctol response, vehicle zero | caspase activation, % (no concentration beside the values) | hit rate 0.066% among 330,000 | AID 2462;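 active = over half of replicate activation scores above 10%, or exactly half above 10 with the replicate mean above 10; inconclusive = replicate mean below 10 yet half the replicates above 10; inactive = over half of replicates below 10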;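 note: wells of about 30 µL received 50 nL stock; many hits fall short of the cut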
UCH37 DUB inh: inhibitors of human deubiquitinating enzyme UCH37 | Q9Y5K5 | purified proteasome/UCH37, Ub-AMC cleavage fluorescence | inhibition, % (no concentration beside the values) | hit rate 0.33% among 330,000 | AID 588478;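 active = mean of two replicates above 20%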;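 note: 0% = compound-free wells with enzyme and 100% = wells lacking proteasome; stock transfer was 100 nL into about 20 µL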
Target sequence (Q9Y5K5 whole entry, looked up): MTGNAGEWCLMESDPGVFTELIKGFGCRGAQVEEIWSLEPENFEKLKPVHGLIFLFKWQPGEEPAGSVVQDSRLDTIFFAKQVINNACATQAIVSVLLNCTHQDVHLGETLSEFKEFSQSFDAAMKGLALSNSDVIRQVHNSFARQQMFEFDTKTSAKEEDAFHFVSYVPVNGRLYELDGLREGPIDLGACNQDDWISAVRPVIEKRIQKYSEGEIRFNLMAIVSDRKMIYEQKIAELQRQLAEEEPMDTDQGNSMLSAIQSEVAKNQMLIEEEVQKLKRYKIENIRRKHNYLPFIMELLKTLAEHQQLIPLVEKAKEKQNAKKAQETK
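Material: Human UCH37 enzyme supplied as purified proteasome complex | Schedule: 30 min compound-proteasome preincubation then 25 min substrate reaction, room temperature | Detection: AMC fluorescence from Ub-AMC cleavage, excitation 355 nm, emission 460 nm | Benchmarks: Wells without proteasome as full block, compound-free enzyme plus substrate as uninhibited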
FGF22 binding: binders of recombinant human FGF22 by thermal shift | AID 651658 | hit rate 1.5% among 340,000 | calls only at 9.99 µM | SYPRO orange fluorescence; percent of sucrose octasulfate shift, DMSO zero;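 active = melting point raised past a set limit in the mean and every replicate; inconclusive = no clear call; three in four hits are not shown here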
Target sequence (Q9HCT0 whole entry, looked up): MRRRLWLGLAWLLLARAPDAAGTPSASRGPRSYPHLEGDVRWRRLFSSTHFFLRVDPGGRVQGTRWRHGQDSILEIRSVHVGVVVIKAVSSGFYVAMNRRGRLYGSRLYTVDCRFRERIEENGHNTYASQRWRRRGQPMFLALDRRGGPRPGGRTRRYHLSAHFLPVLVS
T cruzi inh: blocks replication of Trypanosoma cruzi | T. cruzi beta-gal in NIH3T3, luminescence, 90 h | inhibition, % (test concentration not listed) | hit rate 1.4% among 300,000;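 active = mean inhibition across valid replicates above about 55%, limit read from the data; inconclusive = mean below that limit but half or more replicates reach it; inactive = mean below it, under half of replicates reach it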;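 note: signal also drops with host cell toxicity which is not excluded here; 0% = plate median of DMSO wells and 100% = zero luminescence signal; higher percent means less beta-gal luminescence so fewer parasites; stock transfer was 50 nL into about 50 µL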
rRNA inh HTS: inhibitors of bacterial rRNA selective over humanized ribosomes. E. coli WT GFP vs humanized-ribosome RFP mutants, fluorescence, 24 h; stronger effect = lower value; DMSO median 0, no signal -100. hit rate 1.6% among 350,000. AID 720706. GFP signal change (wild-type ribosome), % (no concentration beside the values);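 active = significant combined selectivity score with lowered wild-type GFP, culture density cut under 30%, mutant RFP and density less affected; inactive = any of these conditions unmet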; note: one replicate is shown; some compounds called inactive have numbers as strong as hits
Ecoli growth: blocks Escherichia coli growth | OD600, 23 h; stronger effect = lower value | OD600 absorbance (test concentration not listed) | hit rate 0.21% among 330,000;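 active = OD600 absorbance below the run mean of sample wells minus 3.6 SD, in any replicate, cut at about 0.56 in these data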;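 note: stock transfer was 300 nL into about 60 µL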
rRNA inh HTS OD600: also measured in rRNA inh HTS; calls as there; OD600 change, %; measured here: OD600 growth;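 optical density of the mix in the first replicate; 0 = DMSO median and -100 = no signal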
rRNA inh HTS RFP: also measured in rRNA inh HTS; calls as there; RFP signal change, %; measured here: RFP humanized mutant strains;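 first replicate; 0 = DMSO median and -100 = no signal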
Starred values were filed as active, the others as inactive; i = inactive; ? = inconclusive; · = not tested or not shown. The list is partial (hit frequency here may not be typical).

SMILES	Beta cell apopt	AF4-AF9 inh	A1 inh	UCH37 DUB inh	FGF22 binding	T cruzi inh	rRNA inh HTS	rRNA inh HTS OD600	rRNA inh HTS RFP	Ecoli growth
Cc1ccc(-n2nnnc2SCC(=O)N2CCNC2=O)cc1C	0.3	-10.6	0.6	-0.8	i	·	7.3	2.0	0.3	0.657
Cn1nnc2c(N3CCCCC3)nccc21	-1.2	·	-0.4	-2.8	·	-10.2	·	·	·	0.746
Cc1cc(NCC2CCCO2)n2c(nc3ccccc32)c1C#N (stereo not given)	12.1	·	0.2	-474.7	·	7.8	·	·	·	0.735
CCOC(=O)c1c(C)[nH]c(C)c1S(=O)(=O)N1CCCCC1	-8.2	-0.7	0.2	0.9	i	-5.6	3.3	8.6	-0.6	0.732
CC1CCCC(C)N1C(=O)COC(=O)c1cc(-c2cccs2)nn1-c1ccccc1 (stereo not given)	·	-1.2	0.0	-0.3	i	-7.4	-22.1	-36.1	3.0	0.704
O=C(CSc1ccc(F)cc1)Nc1ccc(C2SCCS2)cc1	-1.6	0.9	3.2	·	i	10.4	·	·	·	·
O=C1C=C(Nc2ccccc2)c2ccccc2C1=O	·	2.6	·	65.0*	i	-16.8	-35.8	-59.5	5.0	0.565
Cc1ccc([N+](=O)[O-])cc1-c1ccc(/C=C(\C#N)c2[nH]nc(N)c2C#N)o1	34.1	5.6	0.4	5.9	i	·	·	·	·	0.714
O=C(Nc1ccc(C(=O)c2ccccc2)cc1)c1ccccc1	0.8	-0.6	-0.4	5.5	i	-0.2	-21.5*	-10.7*	-6.4*	0.647
NC1=NC(=O)S/C1=C\c1ccc(F)cc1	4.3	-1.9	0.2	·	i	9.7	0.6	7.7	-0.1	·
NC(=O)c1cccn1Cc1ccccc1Cl	-1.4	·	?	4.8	·	-11.6	·	·	·	0.69
Cn1nc(C(F)(F)F)c2cc(C(=O)N3CCOCC3)sc21	-5.8	-0.4	1.1	0.4	i	-13.3	10.7	2.6	0.3	0.641
CC(C)NC(=O)c1c(O)c2ccccc2[nH]c1=O	0.5	·	-0.5	-6.1	·	-13.8	·	·	·	0.691
NS(=O)(=O)c1ccc(CCNC(=O)COC(=O)CC(c2ccccc2)c2ccccc2)cc1	·	-0.6	0.3	·	·	-12.6	-15.2	-16.4	-2.3	·
C=CCCC(=O)N1CCC(n2nccc2NC(=O)CCCc2ccccc2)CC1	-18.2	-6.4	0.3	0.6	i	-2.4	0.6	2.0	1.3	0.702
C(=N\N1CCN(Cc2ccccc2)CC1)/c1ccccc1	6.1	-65.8	0.6	·	i	6.5	-1.1	-4.0	-0.9	·
Cn1cc(Br)c(C(=O)N/N=C/c2cc3c(cc2Cl)OCO3)n1	·	-1.0	·	·	i	0.0	0.6	23.4	1.7	·
COc1ccc(CNCc2ccc(F)cc2)c(OC)c1	-17.5	-0.2	0.1	1.0	i	-0.5	20.1	19.9	2.4	0.712
COC(=O)Cc1ccc(NC(=S)NCc2cccc(OC)c2)cc1	·	-0.3	-0.1	0.5	i	3.2	-14.8	-7.5	0.0	0.641
COc1ccc(NC(=O)Cn2nnc(C(=O)NCCc3ccccc3)c2N)c(OC)c1	·	-3.7	-0.4	3.3	i	-9.5	-8.8	-12.1	-0.1	0.657
COc1ccc(NC(C)=O)cc1NC(=O)CN1CCN(CC(=O)Nc2ccccc2Cl)CC1	-1.0	·	0.3	5.9	·	-0.6	·	·	·	0.809
COc1ccccc1CNC(=O)C1Cc2cc(S(=O)(=O)N3CCCCC3)ccc2N1C(C)=O (stereo not given)	·	-0.8	1.1	-0.9	i	-2.5	6.5	6.8	-1.5	0.641
O=C(C1CC(c2ccccc2O)=NO1)N1CCc2ccccc2C1 (stereo not given)	·	·	1.5	4.9	·	-0.8	·	·	·	0.675
O=C(NC(c1ccccc1)c1ccccn1)c1cccc([N+](=O)[O-])c1 (stereo not given)	·	4.8	0.0	3.6	i	4.1	5.2	3.4	1.7	0.672
CCn1cc(CNC(=S)Nc2cccc3ccccc23)cn1	-5.6	1.5	0.8	1.0	i	-6.9	-16.6	-15.1	4.8	0.668
COC(=O)c1ccccc1NCc1cc(=O)oc2cc(O)c(O)cc12	1.1	-0.3	0.2	-32.2	i	-14.8	-21.9*	-8.4*	2.6*	0.699
COc1ccc(N2CCN(C(=O)c3ccc(NS(=O)(=O)c4ccc(F)c(F)c4)cc3)CC2)cc1	4.0	·	-0.6	0.3	·	-19.3	-32.5	-33.8	-2.7	0.642
COc1ccccc1C(=O)N/N=C(\C)CC(=O)Nc1ccccn1	-7.4	0.9	-0.5	·	i	-7.1	8.1	-0.1	1.2	·
CC1CCc2sc(C(=O)Nc3nnc(SCc4ccc(F)cc4)s3)cc2C1 (stereo not given)	·	·	-0.7	-17.2	·	-10.3	·	·	·	0.754
OCCNc1cc(Cl)ncn1	-0.1	·	0.1	6.6	i	-6.4	7.6	12.2	1.9	0.635
O=C(Nc1cc(C(F)(F)F)ccc1Cl)c1cccc(N2C(=O)CCC2=O)c1	-3.4	-1.1	0.0	0.5	i	-0.6	-5.5	-5.4	0.6	0.704
CCc1cccc2c1NC(=O)C21OCCO1	-2.4	-0.2	-1.0	-1.8	i	-15.3	7.2	17.4	-2.6	0.667
CCC1C(=O)NCCN1C(=O)c1ccccc1OC1CCN(S(C)(=O)=O)CC1 (stereo not given)	0.6	0.2	-0.6	3.1	i	-5.3	17.3	15.5	2.8	0.684
O=C(c1ccc(S(=O)(=O)Cc2ccccc2F)c([N+](=O)[O-])c1)N1CCCC1	-43.4	1.6	0.1	6.1	i	-14.9	-1.1	-3.8	-7.2	0.682
CCc1nc2ccccc2[nH]c1=O	2.9	13.0	-0.8	-27.5	i	-11.3	-3.8	-0.4	0.1	0.702
CC(C)CN(CCCNC(=O)CC1Oc2ccccc2NC1=O)CC(C)C (stereo not given)	-8.0	-1.8	0.1	-2.9	i	-3.2	16.4	17.2	-0.3	0.726
CC(C)CCCN1CCN=C1N(C)C	-0.3	0.3	-0.1	1.1	i	-10.2	-1.4	1.0	-7.4	0.71
Cc1ccc(C)c(CNC(=O)Nc2ccccc2)c1	6.8	-0.6	-1.1	0.5	i	3.7	-0.2	-16.1	-2.4	0.655
Cc1ccc(N(C)C(=O)N2CCN(S(=O)(=O)c3ccc(C)cc3)CC2)cc1	-2.2	-1.4	-0.3	-0.5	i	15.3	-14.0	-24.3	-3.5	0.729
Cc1cc(-c2nc3ccccc3[nH]2)ccc1N	-2.0	-1.4	-7.8	-99.2	i	21.2	-7.5	-4.4	-4.4	0.686
CC1CC(C)CN(CCCNC(=O)CCC(=O)N2CC(C)Oc3ccccc32)C1 (stereo not given)	0.3	3.4	·	2.4	i	-7.9	-1.9	1.7	-2.1	0.686
COc1ccc(N2C(=O)NC3CC2(C)Oc2ccccc23)cc1 (stereo not given)	-8.8	7.7	0.1	4.5	i	-1.0	7.9	-1.2	-3.7	0.698
Nc1nc(-c2ccccc2)cn1N	-5.4	·	0.6	-2.1	·	22.9	·	·	·	0.708
COc1ccc(C(=O)CCC(=O)Nc2cccnc2)c(OC)c1	·	0.6	-0.2	3.0	i	0.2	5.0	4.2	-1.2	0.659
COC(=O)C1=C(C)Nc2c(c(=O)n(C)c(=O)n2C)C1c1cccc(O)c1 (stereo not given)	0.3	5.7	0.1	2.2	i	5.1	0.7	-1.9	-3.9	0.708
Cc1cc(C)c(S(=O)(=O)c2ccccc2C(=O)O)c(C)c1	·	·	-0.2	-1.8	·	-4.2	·	·	·	0.697
CC(C)CNC(=O)CSc1nnc(-c2ccc(Cl)cc2)n1N	-9.2	0.1	1.2	1.2	i	-9.2	17.2	23.4	2.0	0.685
COc1ccc(C(CNC(=O)c2cccc(S(=O)(=O)Nc3ccccc3OC)c2)N2CCOCC2)cc1 (stereo not given)	-2.8	-12.3	0.4	3.0	·	-14.0	-5.5	-6.1	0.5	0.691
COc1cc(C(=O)Nc2ccc(OCC(=O)O)cc2)cc(OC)c1OC	0.9	·	0.9	1.0	·	3.9	·	·	·	0.69
Cc1ccc(C(=O)OCC(=O)Nc2ccccc2N2CCOCC2)cc1	-7.5	·	1.0	1.6	·	-7.0	·	·	·	0.653
c1ccc(C2=Nn3c(nnc3-c3ccco3)SC2)cc1	3.8	0.5	-0.2	7.2	i	-3.7	-15.1	-19.4	-3.9	0.674
Cn1c(=O)[nH]c(=O)c2c1nc(N1CCCCC1)n2CC(O)COc1ccc([N+](=O)[O-])cc1 (stereo not given)	0.3	0.9	0.5	3.9	i	-8.6	13.3	9.8	2.0	0.626
Clc1cccc(Nc2nc(-c3ccncc3)cs2)c1	-26.2	-3.6	-0.7	2.5	·	65.8*	-17.9	4.1	8.8	0.727
COc1ccc(-n2nc(C(=O)NCC(=O)NC(C)C)c3ccccc3c2=O)c(OC)c1	-7.1	0.5	0.1	5.8	i	-12.2	-3.6	7.1	-4.0	0.679
Cc1ccc(C(=O)N/C(=C\c2ccc(Cl)cc2)C(=O)NCC2CCCO2)cc1 (stereo not given)	6.6	-0.5	0.8	-1.3	i	-6.1	0.4	2.2	-0.8	0.673
O=C(Nc1ccncc1Cl)c1ccncc1	-5.4	0.7	1.9	-0.6	i	16.1	18.1	12.8	1.2	0.691
COc1ccccc1NC1=CC(=O)CC(c2ccccc2)C1 (stereo not given)	8.2	-2.5	0.1	1.9	i	-6.9	2.1	4.8	-11.8	0.638
O=C1C2CC=CCC2C(=O)N1Nc1ccccc1 (stereo not given)	-5.7	1.1	0.0	4.0	i	-8.3	17.4	23.4	4.8	0.645
NC(=O)C1CC(O)CN1c1nc(CN2CCOCC2)nc2scc(-c3ccccc3)c12 (stereo not given)	-3.6	·	1.0	1.4	·	-9.2	·	·	·	0.648
C=CCn1c(=NC(=O)c2cccs2)sc2cc(NC(C)=O)ccc21	-0.6	-5.3	-1.3	·	i	14.7	5.8	13.9	-2.6	·
More structures:
SMILES	Beta cell apopt	AF4-AF9 inh	A1 inh	UCH37 DUB inh	FGF22 binding	T cruzi inh	rRNA inh HTS	rRNA inh HTS OD600	rRNA inh HTS RFP	Ecoli growth
COc1ccc(-n2nc(C(=O)NCC(=O)NCC3CCCO3)c3ccccc3c2=O)cc1Cl (stereo not given)	3.9	·	-1.4	0.5	·	·	·	·	·	0.666
Cc1cc(NC(=O)COc2ccc(N(C)S(=O)(=O)c3ccccc3)cc2)no1	-12.1	·	-0.8	0.7	·	2.3	·	·	·	0.693
CN(CCc1ccccc1)C(=O)c1ccc(NC(=O)Cc2ccc(NC(=O)C3CCN(C(=O)CCc4ccccc4)CC3)cc2)cc1	·	-2.1	·	3.4	i	·	-5.1	0.1	4.1	0.697
CCCCc1nc2cc(C(=O)N3CCCCC3CCNC(C)=O)ccc2o1 (stereo not given)	-7.2	-3.8	-0.4	-0.1	i	-34.2	12.6	11.4	-0.4	0.63
CC(Sc1ccccc1)C(=O)N/N=C/c1ccccc1 (stereo not given)	·	-3.8	0.0	·	i	3.7	4.0	5.7	0.6	·

High-throughput results deposited in PubChem BioAssay by several laboratories.
